StopGo reporter: FMDV 2A StopGo reporter, luciferase signal; human cells with a luciferase reporter of 2A StopGo recoding; control for the full effect not named in the record; Potency, µM (top dose mostly 57.9 µM), for the others: at the highest dose signal change, negative = less light; actives 1.2% (n = 410,000); active = well fitted falling curve with a large enough effect; inconclusive = small, poorly fitted or top-dose-only effect; inactive = no such curve, though single readings can be large or run the other way; tested in HEK293T cells; also: % is scaled to controls: 0 for no effect and ±100 for the full control effect; nearly all actives have a fitted effect of over 45% in size; luciferase light after 4 h
RE007 growth inh: less growth of the S. pombe RE007 Vpr strain | S. pombe RE007 Vpr strain, BacTiter-Glo ATP luminescence, 24 h; control for the full effect not named in the record | Potency, µM (doses to about 92.2 µM), inactives show at the top dose activity change, negative = less growth | actives 0.21% (n = 360,000) | AID 651644; active = well fitted falling curve with a large enough effect; inconclusive = small, poorly fitted or top-dose-only effect; inactive = no such curve, though single readings can be large or run the other way;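 also: % is scaled to controls: 0 for no effect and ±100 for the full control effect; nearly all actives have a fitted effect of over 50% in size; the assay follows cell death caused by Vpr and the record does not say whether a fall means rescue or toxicity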
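Fission yeast RE007 carrying one integrated HIV-1 vpr copy, seeded at OD 0.01 in PMG+AL medium with 23 nL pinned compound. Grown 24 h at 30 degrees; viability read by BacTiter-Glo luminescence after 5 min.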
Cruzain noTriton: blocks cruzain activity in detergent-free assay; purified cruzain, Z-FR-AMC fluorescence, no detergent; actives 2.3% (n = 200,000); Potency, µM, without a hit: max response, negative = inhibition, usual class: inhibitors; P25779; AID 1476; active = well fitted curve in the direction sought with a large enough effect; inconclusive = small, poorly fitted or top-dose-only effect, or another doubt; inactive = no such curve, though single readings can be large; an effect the other way counts as inactive or inconclusive;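 also: plate controls were enzyme without inhibitor for no effect and buffer without enzyme for full effect; nearly all actives have a fitted effect of over 40% in size; top concentration of the series not given in the record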
Target sequence (P25779 123-467 limits assumed): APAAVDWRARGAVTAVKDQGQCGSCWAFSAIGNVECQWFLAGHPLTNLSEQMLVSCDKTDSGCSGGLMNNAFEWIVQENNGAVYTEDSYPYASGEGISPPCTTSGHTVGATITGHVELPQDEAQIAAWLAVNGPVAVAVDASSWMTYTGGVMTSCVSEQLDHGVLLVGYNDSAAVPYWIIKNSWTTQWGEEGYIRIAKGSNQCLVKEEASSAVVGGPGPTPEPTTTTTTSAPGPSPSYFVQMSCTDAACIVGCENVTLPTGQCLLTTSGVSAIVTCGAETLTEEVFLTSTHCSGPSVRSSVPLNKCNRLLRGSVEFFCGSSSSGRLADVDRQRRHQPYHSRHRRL
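Detergent-free condition (0.00005% Triton X-100) in acetate buffer pH 5.5 with DTT. 1.5 nM enzyme and compound were pre-mixed 15 min, then 2 uM Z-FR-AMC substrate added; reaction progress from fluorescence change between first and third reads (60 s).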
NS1 function inh: influenza NS1 inhibition; Potency, µM (top dose mostly 46.1 µM), inactives show top-dose activity, positive = more growth; actives 0.4% (n = 270,000); S. cerevisiae slowed by influenza A NS1, growth recovery by OD600; also: actives are rising curves; nearly all actives have a fitted effect of over 50% in size
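Growth recovery, yeast-based: influenza A NS1 expressed in S. cerevisiae causes slow growth, and suppressors are detected by OD600. The parent strain without NS1 is used as positive control.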
Marburg entry inh: blocks Marburg virus binding to or entry into cells. Potency, µM (series often up to 37.8 µM), inactives show at the top dose activity change, negative = inhibition, actives largely listed as inhibitors. Marburg virus pseudotyped entry inhibition, cell reporter; control for the full effect not named in the record; about a third of the inactives were read at about 46 µM. actives 1.8% (n = 300,000). AID 540276; active = well fitted inhibition curve with a large enough effect; inconclusive = small, poorly fitted or top-dose-only effect, or effect the other way; inactive = flat fitted curve, though single readings scatter; tested in HEK293 cells; about a fifth of its hits are not listed in these tables; also: % is scaled to controls: 0 for no effect and ±100 for the full control effect; luciferase read-out
Cruzain inh Det: inhibitors of Trypanosoma cruzi cruzain with detergent; purified cruzain, Z-FR-AMC fluorescence, 0.01% Triton; P25779; actives 0.43% (n = 200,000); AID 1478; Potency, µM, for the others: max response, negative = inhibition, hits mostly inhibitors; active = well fitted curve in the direction sought with a large enough effect; inconclusive = small, poorly fitted or top-dose-only effect, or another doubt; inactive = no such curve, though single readings can be large; an effect the other way counts as inactive or inconclusive;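 also: plate controls were neutral wells for no effect and buffer without enzyme for full effect; nearly all actives have a fitted effect of over 40% in size; top concentration of the series not given in the record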
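In this qHTS format, compounds are incubated with 1.5 nM cruzain for 15 min at room temperature before 2 uM Z-FR-AMC is added. Release of AMC is followed at 360/450 nm, and progress is taken as the 60 s fluorescence difference.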
SARS PLP yeast: inhibitors of SARS-CoV papain-like protease in yeast | S. cerevisiae expressing SARS-CoV PLpro, growth rescue; control for the full effect not named in the record | Potency, µM (doses to about 32.9 µM), for inactives: at the top dose activity, positive = growth rescue | actives 0.19% (n = 330,000) | AID 485353; also: 0% is about no effect; nearly all actives have a fitted effect of over 55% in size; growth read by luminescence after 48 h
LASV entry inh: blocks Lassa virus binding to or entry into cells. Potency, µM (highest dose often 37.9 µM), for the others: at the highest dose activity change, negative = inhibition, actives largely listed as inhibitors. actives 1.2% (n = 300,000). Lassa virus pseudotype entry inhibition, cell reporter; control for the full effect not named in the record; active means well fitted inhibition curve with a large enough effect; inconclusive means small, poorly fitted or top-dose-only effect, or effect the other way; inactive means flat fitted curve, though single readings scatter; tested in HEK293 cells; also: % is scaled to controls: 0 for no effect and ±100 for the full control effect; nearly all actives have a fitted effect of over 50% in size; luciferase read-out
* hit, by the source's call; ? = inconclusive; . = not tested or not shown; & = joins results of further samples; [ ] = dose if it differs, or a comment. Unless noted, calls follow the shape of the dose curve; as a rule, active means well fitted rising curve with a large enough effect; inconclusive means small, poorly fitted or top-dose-only effect; inactive means no such curve, though single readings can be large or run the other way. Potency is read from the fitted curve at half-maximal effect.

SMILES	StopGo reporter	RE007 growth inh	Cruzain noTriton	NS1 function inh	Marburg entry inh	Cruzain inh Det	SARS PLP yeast	LASV entry inh
CN(C)CCNC(C(=O)Nc1cccc(C(F)(F)F)c1)c1ccccc1 (stereo not given)	-18%	8%	.	2%	?	.	0%	?
CCOC(=O)c1c(C)[nH]c(C)c1S(=O)(=O)NCCc1ccco1	51%[activator]	15%	.	3%	.	.	-4%	.
CCO/C=C1/C(=O)N(Cc2ccccc2)C(=O)c2ccccc21	-18%	?	-15%	7%	1%	-19%	-3%	5%
CCCN1Cc2cccc(C(=O)NCc3ccccc3)c2C1=O	26%	-3%	6%	-33%	-6%	0.7%	-20%	-1%
Cc1csc(Sc2ccc(C(=O)OCC(=O)Nc3ccc(F)cc3[N+](=O)[O-])cc2[N+](=O)[O-])n1	-10%	4%	?	2%	6%	-4.6%	0%	0%
CCC(c1nnnn1Cc1cccs1)N1CCN(C(=O)c2ccco2)CC1 (stereo not given)	-1%	3%	.	0%	.	.	0%	.
CCOC(=O)Cn1cc([N+](=O)[O-])c(OC)n1	-9%	5%	5%	2%	-13%	-0.7%	0%	-2%
Cc1cc(Cn2ccnc2)c(C)c([N+](=O)[O-])c1Cn1ccnc1	-15%	-2%	.	3%	-1%	.	0%	.
Cc1ccc(Cn2c(SCC(=O)C(C)(C)C)nc3ccsc3c2=O)cc1	?	.	-4%	.	.	2.1%	.	.
O=C(CN1CCN(Cc2ccccc2)CC1)N1CCN(c2ccccc2)CC1	-10%	-9%	.	-1%	.	.	0%	.
O=C1NC(=O)C2(Cc3c(nc4ccccn4c3=O)N3CCCCCC32)C(=O)N1Cc1ccccc1 (stereo not given)	?	-9%	10%	-39%	-1%	-6.1%	-3%	3%
CC(=O)Nc1ccc(S(=O)(=O)NC(CC(=O)NCCc2ccccc2)C(C)C)cc1 (stereo not given)	.	-16%	1%	-6%	?	5.0%	10%	0%

A different layout for some results above.
canonical_smiles | StopGo reporter | RE007 growth inh | Cruzain noTriton | NS1 function inh | Marburg entry inh | Cruzain inh Det | SARS PLP yeast | LASV entry inh
CCOC(=O)c1c(C)[nH]c(C)c1S(=O)(=O)NCCc1ccco1 | 51%[activator] | 15% | . | 3% | . | . | -4% | .
CCO/C=C1/C(=O)N(Cc2ccccc2)C(=O)c2ccccc21 | -18% | ? | -15% | 7% | 1% | -19% | -3% | 5%
CCCN1Cc2cccc(C(=O)NCc3ccccc3)c2C1=O | 26% | -3% | 6% | -33% | -6% | 0.7% | -20% | -1%
Cc1csc(Sc2ccc(C(=O)OCC(=O)Nc3ccc(F)cc3[N+](=O)[O-])cc2[N+](=O)[O-])n1 | -10% | 4% | ? | 2% | 6% | -4.6% | 0% | 0%
CCC(c1nnnn1Cc1cccs1)N1CCN(C(=O)c2ccco2)CC1 (stereo not given) | -1% | 3% | . | 0% | . | . | 0% | .
CCOC(=O)Cn1cc([N+](=O)[O-])c(OC)n1 | -9% | 5% | 5% | 2% | -13% | -0.7% | 0% | -2%
Cc1cc(Cn2ccnc2)c(C)c([N+](=O)[O-])c1Cn1ccnc1 | -15% | -2% | . | 3% | -1% | . | 0% | .
Cc1ccc(Cn2c(SCC(=O)C(C)(C)C)nc3ccsc3c2=O)cc1 | ? | . | -4% | . | . | 2.1% | . | .
O=C(CN1CCN(Cc2ccccc2)CC1)N1CCN(c2ccccc2)CC1 | -10% | -9% | . | -1% | . | . | 0% | .

(cont.)
SMILES	StopGo reporter	RE007 growth inh	Cruzain noTriton	NS1 function inh	Marburg entry inh	Cruzain inh Det	SARS PLP yeast	LASV entry inh
CCOC(=O)N1CCN(c2c(NCCCN(CC)Cc3ccccc3)c(=O)c2=O)CC1	18%	3%	1%	1µM*	-9%	-0.6%	0%	6%
CCn1cc(C(=O)NCc2ccccc2Cl)c(=O)c2cc(S(=O)(=O)N3CCc4ccccc4C3)ccc21	-10%	.	13µM*	.	1%[46.1 µM]	-3.4%	.	-8%[46.1 µM]
O=C(Nc1ccccc1F)Nc1cccnc1Cl	23%	-9%	.	.	?	.	.	?
CCOC(=O)Cc1nc2cc(Cl)ccc2o1	-7%	-6%	.	2%	7%[46.1 µM]	.	-1%	-3%
CCN(CC)S(=O)(=O)c1ccc(/C(O)=C2/C(=O)C(=O)N(CCOC)C2c2ccccc2)cc1 (stereo not given)	-17%	6%	-4%	8%	8%	-1.2%	1%	0%
C=CCNC(=S)Nc1ccc(C)cc1[N+](=O)[O-]	53%[activator]	-5%	.	2%	.	.	-2%	.
CC1CC(C)CN(CCCSc2ccccc2)C1 (stereo not given)	-2%	-26%	8%	?	2.9µM*	3.3%	17%	?
COc1cc(C=O)ccc1Oc1nc(Nc2ccc(F)cc2F)nc(N2CCOCC2)n1	-7%	8%	.	.	?	.	-8%	3%
O=S1(=O)CCN(OCc2ccc(F)cc2Cl)CC1	-3%	-15%	.	.	-2%[46.1 µM]	.	-4%	0%[46.1 µM]
CCOC(=O)C1CCCN(C(=O)Cn2ncc3c([nH]c4ccc(C)cc43)c2=O)C1 (stereo not given)	?	-8%	4%	-4%	.	-2.8%	1%	-6%[46.1 µM]
O=C(Cn1nc(-c2ccccc2)ccc1=O)NCCN1CCN(c2cccc(Cl)c2)CC1	0%	-28%	6%	-2%	-3%	2.8%	4%	-9%
Cc1nc(Nc2nc3ccccc3o2)nc(C)c1C(=O)Nc1ccc(F)cc1	-10%	0%	.	-3%	.	.	1%	.
NC(=O)C1(N2CCCCC2)CCN(C(=O)CSc2nc3ccccc3s2)CC1	-26%	0%	-9%	4%	?	-2.3%	-1%	8%
CCCCCNC(=O)CC1Nc2c3ccccc3nc(=S)n2C1=O (stereo not given)	13%	4%[3.69 µM]	-19%	15%	-20%	1.9%	-6%	?
COc1ccc2c(c1OC)C(=O)OC2Nn1cncn1 (stereo not given)	-21%	1%	-7%	3%	10%	0.3%	2%	2%
CC(=O)Nc1ccc2ccc3cccc4ccc1c2c34	-8%	-5%	-18%	-2%[9.22 µM]	-1%	-5.5%	-5%	12%
CC(=O)NC(Cc1ccccc1)C(=O)NC1CCN(C(=O)c2ccc([N+](=O)[O-])cc2)CC1 (stereo not given)	-15%	2%	0%	16%	9%	-3.0%	13%	7%
COc1ccccc1-c1noc(-c2ccccc2)n1	-12%	?	-3%	-48%	?	-6.1%	-14%	-28%
O=C(NC(=S)Nc1cccc2cc(O)ccc12)c1ccccc1Br	-7%	2%	.	9%	-28%	.	-4%	1%
Cc1ccc(N(C(=O)C(F)(F)F)C(C(=O)NC2CCCCC2)c2ccncc2)cc1C (stereo not given)	-2%	-18%	?	7%	2%	-0.7%	-10%	-5%
CC(=O)N1CC(C)Sc2ccc(S(=O)(=O)NCc3ccc(F)cc3)cc21 (stereo not given)	13%	-6%	.	-2%	.	.	1%	.
N#C/C(=C/c1ccc(N2CCOCC2)o1)c1ccc(Br)cc1	0%	-5%	?	-13%	10%	-8.2%	-11%	0%
CCCCOc1ccc(C(=O)NN2CCOCC2)cc1	14%	21%	.	.	2%	.	.	1%
C=CCSc1nnc2n(CCc3ccccc3)c(=O)c3c4c(sc3n12)COC(C)(C)C4	-21%	7%	-3%	9%	9%&9%&9%	0.1%	6%	14%
Cc1cc(C(=O)OCC(=O)c2cccc([N+](=O)[O-])c2)c2ccccc2n1	-20%	7%	?	4%	3%	-6.7%	-37%	0%
O=C(CCNC(=O)C1CCN(S(=O)(=O)c2ccc(F)cc2)CC1)Nc1ccccc1	-17%	6%	.	3%	.	.	-3%	.
CC(=O)Nc1ccc(NC(=O)CCS(=O)(=O)c2ccc3c(c2)oc(=O)n3C)cc1	-4%	-4%	.	13%	.	.	-1%	.
CN(C)S(=O)(=O)c1ccc2c(c1)nc(CCC(=O)Nc1ccc(N3CCOCC3)cc1)n2C	13%	-16%	.	0%	?	.	0%	-16%
CNc1nc(CCN2C(=O)c3ccccc3C2=O)cs1	21%	8%	-4%	4%	?	6.0%	5%	12%
CCOC(=O)C1CCN(C(=O)CSc2ccccc2Cl)CC1	9%	-6%	.	8%	11%[46.1 µM]	.	1%	-19%
Nc1cc2c([N+](=O)[O-])cccc2o1	?	-19%	-5%	-83%	-7%	-5.7%	-9%	-12%
Cc1ccccc1OCC(=O)Nc1ccc2nc(SCC(N)=O)sc2c1	5%	.	19%	.	-23%[46.1 µM]	-7.0%	.	21%[46.1 µM]
Cc1ccc(C2Nc3ccccc3-c3nc4ccccc4n32)o1 (stereo not given)	39%[activator]	-4%	-10%	-93%	2%	-10%	-35%	21%
c1ccc(CCn2c(C3CC3)nc3ccccc32)cc1	-19%	-7%	9%	-63%	-27%	0.2%	17%	7%
Cc1cccc(S(=O)(=O)c2c(C)cc(C)[nH]c2=O)c1	0%	3%	.	2%	0%[46.1 µM]	.	1%	17%[46.1 µM]
O=C(COc1ccc2ccc(=O)oc2c1)NC(Cc1ccc(Cl)cc1)C(=O)O (stereo not given)	-10%	32%	.	11%	.	.	-8%	.
COc1ccc(CN(C(=O)c2ccco2)C2CCS(=O)(=O)C2)cc1 (stereo not given)	-17%	2%	.	3%	-2%	.	-2%	25%
C#CCSc1nncn1C(=O)/C=C/c1ccccc1	.	-12%	-7%	-9%	1%	-3.8%	-5%	-26%
CCC1CCCCN1CCCNC(=O)c1c(O)nc2ccccn2c1=O (stereo not given)	14%&-19%	-2%	-2%	-11%	7%&7%[46.1 µM]	-5.3%	-3%	.

Assay outcomes deposited in PubChem by National Center for Advancing Translational Sciences (NCATS).
